# Compound activity from PubChem.
# miR-21 reporter: miR-21 reporter, rising signal. 340,000 tested, under 10 active. Potency, µM (highest dose often 38.3 µM), for the others: at the highest dose reporter change, positive = more light. HeLa miR-21 FLuc reporter, luciferase, 48 h. AID 2288; active = well fitted rising curve with a large enough effect; inconclusive = small, poorly fitted or top-dose-only effect; inactive = no such curve, though single readings can be large or run the other way;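 note: % of control where 0% means no effect; miR-21 action dims this reporter so a rising signal means less miR-21 action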
#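 HeLa cells stably expressing CMV-driven firefly luciferase with a downstream miR-21 binding sequence, endogenously expressing miR-21, were treated with titrations (up to about 40uM final) for 48 hours at 37 degree Celsius. Luciferase luminescence was read after lysis.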
# GLA inh pH 4.5: blocks human alpha-galactosidase A at pH 4.5; P06280; purified enzyme, 4-MU-alpha-Gal fluorescence, pH 4.5; activity change, negative = inhibition, % at 105 µM; 230,000 tested, under 10 active; AID 1467; inconclusive = small, poorly fitted or top-dose-only inhibition, or a rising curve; inactive = flat fitted curve, though single readings scatter; no compound was filed as active;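 note: 0% = full activity with enzyme and -100% = basal without enzyme; dose as in the result columns while the protocol names 77 µM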
# Target sequence (P06280 whole entry, looked up): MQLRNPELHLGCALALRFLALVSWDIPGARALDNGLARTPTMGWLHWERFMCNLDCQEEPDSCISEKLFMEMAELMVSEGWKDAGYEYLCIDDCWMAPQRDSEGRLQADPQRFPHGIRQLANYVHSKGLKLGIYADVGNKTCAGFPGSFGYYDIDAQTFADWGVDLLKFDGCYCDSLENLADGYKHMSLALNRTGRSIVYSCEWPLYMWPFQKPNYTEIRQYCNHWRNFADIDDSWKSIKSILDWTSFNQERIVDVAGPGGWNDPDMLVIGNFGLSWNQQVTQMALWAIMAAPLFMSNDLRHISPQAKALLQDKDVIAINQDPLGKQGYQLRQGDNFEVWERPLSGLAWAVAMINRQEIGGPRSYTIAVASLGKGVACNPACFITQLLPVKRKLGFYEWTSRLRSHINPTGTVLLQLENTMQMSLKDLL
# Rango-impB inh: prevents formation of the Rango-importin beta complex. Q14974. Rango CFP/YFP FRET sensor + importin beta, 45 min. Potency, µM (titrated, usually from 92.2 µM), without a hit: top-dose inhibition of complex formation. 0.031% of 340,000 active. AID 540263; active = rising FRET ratio curve, often small or poorly fitted; inconclusive = mostly compound fluorescence or quenching in the first reads; inactive = flat curves in all reads;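 note: potency is the fitted concentration of half-maximal effect; 0% = DMSO wells and 100% = buffer wells lacking importin beta; nearly all actives have a fitted effect of over 15% in size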
#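 Inhibition scored from the CFP 486 nm/YFP 530 nm FRET ratio 45 min after adding 0.125 microM importin beta to 50 nM Rango biosensor preincubated 5 min with compound (room temperature, PBS with DTT, Tween-20, BSA). No-importin wells as positive control.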
# Rango release inh: inhibition of RanGTP-driven Rango-importin beta dissociation; O95149+P62826; Biochemical FRET Rango-importin beta, RanGTP-induced dissociation; Potency, µM (titrated, usually from 46.1 µM), without a hit: top-dose activity change, negative = inhibition; 0.071% of 340,000 active; active means falling FRET ratio curve, often poorly fitted, with flat reads before Ran was added; inconclusive means other falling curves, or compound fluorescence or quenching; inactive means flat or rising ratio curve;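 note: potency is the fitted concentration of half-maximal effect; % of control where 0% means no effect; nearly all actives have a fitted effect of over 45% in size; -100% = wells without RanGTP and RCC1; the record marks most hits as doubtful in a second field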
#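 Rango FRET biosensor (snurportin-1 IBB flanked by N-terminal EYFP and C-terminal CFP10) at 0.1 uM, with 0.25 uM importin beta in PBS, 1mM DTT, 0.02% Tween-20, 0.1% BSA. 0.6 uM Ran, 2mM GTP and 0.2 uM RCC1 were then added for 45 min at room temperature. Inhibition read as loss of FRET rise.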
# Starred values were filed as active, the others as inactive; ? = inconclusive; . = no result given; & = joins results of further samples.
SMILES,miR-21 reporter,GLA inh pH 4.5,Rango-impB inh,Rango release inh
CCC1(c2ccccc2)NC(=O)N(CC(=O)Nc2cc(S(=O)(=O)N3CCCCC3)ccc2N(C)C)C1=O (configuration not stated),.,.,-2.7%,14%
O=C(Nc1cccc(Cl)c1)Nc1ccccc1-n1ccnc1,-1%,2,-0.4%,?
C(#Cc1ccccc1)C[N+]1(CC#Cc2cccc3ccccc23)CCCC1,?,-7,2.3%,1%
O=C(NNC(=S)Nc1ccc(OC(F)F)cc1)c1cc2c(s1)CCCC2,-17%,-13,1.2%,0%
CCCC1=C(C(=O)OCC)C(c2ccncc2)n2ncnc2N1 (configuration not stated),8%,-8,0.4%,-13%
CN1C2=NCCN2C(=O)c2cc(Cl)ccc21,6%,-3,0.0%,4%
CCC(=O)NN1CCN(c2ccncc2S(=O)(=O)N2CCCCC2)CC1,-11%,.,6.2%,-15%
CCC(=O)Nc1nc2cc(OC)ccc2s1,-30%,-4,-4.8%,-19%
O=[N+]([O-])c1ccc(COc2ccc(Br)cc2CN2CCOCC2)cc1,-11%,-7,-0.6%,45%
O=C(Cn1cnc2cc([N+](=O)[O-])ccc2c1=O)NC1CCS(=O)(=O)C1 (configuration not stated),0%,8,0.1%,-12%
CC(=O)NC(CCS(C)(=O)=O)C(=O)Nc1cccc(C)c1C (configuration not stated),-9%,10,-0.6%,-6%
Cn1ccc(C(=O)OCC(=O)Nc2cccc(Cl)c2)n1,8%,.,-0.4%,1%
Cc1c(CN2CCCCC2)c(O)n(CCO)c(=O)c1C#N,1%,10,?,-13%
O=C(COc1ccc(Br)cc1)NCc1cn2ccccc2n1,-1%,5,-5.4%,18%
Cc1ccc(OCC(=O)NCCCNC(=O)COc2ccc(C)cc2)cc1,1%,.,0.9%,1%
O=C(CO/N=C/c1ccc2c(c1)OCO2)Nc1cccc(Br)c1,-14%,2,?,1%
CC(C)(Oc1ccc(Cl)cc1)C(=O)Nc1ncccn1,-2%,-9,4.4%,-7%
O=C(Nc1ccc(N2CCOCC2)nc1)c1ccc(F)cc1,-23%,-5,2.6%,-14%
CC(C)C(c1nnnn1CCc1ccccc1)N1CCC(C(N)=O)CC1 (configuration not stated),-19%,-13,0.3%,6%
Cc1cccc(/C=N\N=C\c2cccc(C)c2)c1,-18%,.,-2.6%,1%
Cc1nc(C(=O)NCCCO)cc2c1[nH]c1ccccc12,-20%,.,-2.4%,-11%
COC(=O)c1ccccc1NC(=O)N1CCN(c2ccccc2)CC1,0%,3,1.2%,-8%
CC(=O)c1cccc(N=C2C(=O)Nc3ccccc32)c1,-8%,-3,0.6%,-7%
CC(CCN1C(N(C)C)=NC[C@@H]1C)c1ccccc1 (some centres not stated),.,.,-0.4%,1%
O=C(Nc1nc2cc3c(cc2s1)OCO3)C1=COCCO1,?,1,-3.7%,-1%
Cn1c(C(=O)N2CCCC(C(=O)NCCCc3ccccc3)C2)cc2sccc21 (configuration not stated),-1%,-10,3.8%,2%
O=C(OCCn1c(=S)sc2ccccc21)c1ccccc1,.,.,-4.1%,1%
O=C(Cn1c(=O)oc2ccccc21)Nc1ccc(Cl)cc1Cl,-5%,.,-0.4%,-12%
N#C/C(=C\C1=C(N2CCOCC2)C(=C\c2ccccc2)/CC1)C(=O)Nc1ccccc1F,-3%,-6,?,-25%
O=C(Nc1ccc2c(c1)OCO2)c1ccc(N2CCCC2)c([N+](=O)[O-])c1,-25%,-3,0.2%,6%
C=CCn1c(C(c2ccccc2)c2ccccc2)n[nH]c1=S,-5%,4,-1.3%,-1%
CC(=O)c1ccc(NC(=O)CS(=O)(=O)c2cn(CC(=O)N3CCOCC3)c3ccccc23)cc1,4%,.,-1.7%,-7%
COc1ccc(CCNC(=O)CCn2c(=O)oc3ccccc32)cc1OC,-13%,10,1.6%,27%
CC(C)(C)c1csc(NC(=O)Cc2cccs2)n1,-11%,-4,1.3%,18%
COc1ccccc1C(=O)NC(=O)CSc1nc(C)cs1,.,.,3.5%,4%
CC1CCC2(CC1)NC(=O)N(CC(=O)NCCc1ccccc1)C2=O (configuration not stated),.,.,3.4%,-8%
Cc1cccc(C)c1NC(=O)CS(=O)CC(=O)NC1CCCc2ccccc21 (configuration not stated),-9%,11,-0.3%,-5%
C/C(CC(C)C)=N/Nc1ccc([N+](=O)[O-])cc1[N+](=O)[O-],-2%,-5,2.9%,0%
COc1ccc(NC(=O)c2cc(S(=O)(=O)N3CCc4ccccc43)cn2C)cc1OC,-1%,.,-4.2%,1%
OCCCNc1nc(-c2ccccc2)nc2c1oc1ccccc12,9%,-15,6.4%,-10%

# Five compounds from above, arranged by number of heavy atoms, ascending:
SMILES,miR-21 reporter,GLA inh pH 4.5,Rango-impB inh,Rango release inh
CC(C)(C)c1csc(NC(=O)Cc2cccs2)n1,-11%,-4,1.3%,18%
C/C(CC(C)C)=N/Nc1ccc([N+](=O)[O-])cc1[N+](=O)[O-],-2%,-5,2.9%,0%
OCCCNc1nc(-c2ccccc2)nc2c1oc1ccccc12,9%,-15,6.4%,-10%
CC1CCC2(CC1)NC(=O)N(CC(=O)NCCc1ccccc1)C2=O (configuration not stated),.,.,3.4%,-8%
CC(=O)c1ccc(NC(=O)CS(=O)(=O)c2cn(CC(=O)N3CCOCC3)c3ccccc23)cc1,4%,.,-1.7%,-7%

# Remaining list, next part
SMILES,miR-21 reporter,GLA inh pH 4.5,Rango-impB inh,Rango release inh
CCOc1cc(/C=N\Nc2nc(Nc3ccccc3)nc(N3CCOCC3)n2)ccc1OC(=O)c1ccco1,-19%,-17,1.0%,9%
CCn1ncc(CN2CCCC(C(=O)c3cccc(OC(C)C)c3)C2)c1C (configuration not stated),1%,2,3.1%,8%
COc1ccccc1C(=O)Nc1ccc(C(=O)O)cc1,-18%,-7,0.8%,9%
CN(Cc1ccccc1)C(=O)C1CCCN(c2ncnc3c2nc2n3CCCCC2)C1 (configuration not stated),7%,.,0.0%,6%
COc1ccccc1N1CCN(C(=O)C2CCN(S(=O)(=O)c3ccc4c(c3)CC(C)N4C(=O)C3CC3)CC2)CC1 (configuration not stated),29%,.,-0.5%,1%
Cc1ccc(Cl)cc1NC1=C/C(=N\S(=O)(=O)c2cccs2)c2ccccc2C1=O,?,-12,0.6%&-0.2%,-1%&5%
Cc1ccnc2c1ccc1cccnc12,.,.,-1.5%,?
CCc1ccccc1NC(=O)CN(C)C(=O)c1cccc(S(=O)(=O)N2CCCCCC2)c1,.,.,-0.3%,-6%
O=C(Nc1ccc2c(c1)OCO2)c1c(Cl)nc2sccn12,-48%,-3,3.4%,-3%
O=S(Cc1ccccc1)CC(O)(c1ccccc1)c1ccccc1 (configuration not stated),-7%,-10,0.1%,12%
CCCCNC(=O)c1onc(CSc2cccc(Cl)c2)c1C(=O)O,-9%,14,-0.9%,-3%
COc1ccccc1C=NNC(=O)NN=Cc1ccccc1OC,.,.,0.5%,11%
Cc1ccccc1OCC(=O)Nc1sc2c(c1C#N)CC(C)(C)NC2(C)C,1%,.,-1.6%,-9%
O=C(CN1CCN(Cc2ccccc2)CC1)Nc1ccccc1,-1%,.,-4.5%,20%
C(=N\n1cnnc1)/c1ccc2ncccc2c1,-8%,6,-0.5%,2%
CC(=O)c1c(C)[nH]c(C(=O)COc2ccc3ccc(=O)oc3c2)c1C,.,.,2.4%,-14%
O=C(NCc1ccccc1)N1CCNCC1,1%,.,-2.2%,-7%
O=C(Nc1ccccc1)c1ccc2snnc2c1,-33%,4,-0.9%,-1%
O=C(CCNC(=O)c1ccccc1Cl)NCCc1ccc(Cl)cc1,-2%,.,-1.0%,5%
C=CCNC(=O)CN1C(=O)C2C3c4ccccc4C(c4ccccc43)C2C1=O (configuration not stated),1%,-7,?,-2%

# An excerpt of these results, as tab-separated lines.
mol	miR-21 reporter	GLA inh pH 4.5	Rango-impB inh	Rango release inh
O=C(Nc1ccccc1)c1ccc2snnc2c1	-33%	4	-0.9%	-1%
O=C(CN1CCN(Cc2ccccc2)CC1)Nc1ccccc1	-1%	.	-4.5%	20%

# (continued)
SMILES,miR-21 reporter,GLA inh pH 4.5,Rango-impB inh,Rango release inh
CCCOc1ccc(-c2nc(C#N)c(NCCCn3ccnc3)o2)cc1,1%,-1,0.2%,-11%
COc1cc(CC(=O)NCCc2ccc(S(N)(=O)=O)cc2)cc(OC)c1OC,4%,-3,0.3%,6%
O=C(CCCCCNc1nc(=S)[nH]c2ccccc12)NCc1ccccc1Cl,-10%,7,.,.
O=[N+]([O-])c1ccc(P(=O)(Cc2ccccc2)c2ccccc2O)cc1 (configuration not stated),2%,.,1.9%,-1%
Cc1cccc(NC(=O)CSc2nc(C3CC3)nc3ccccc23)c1,1%,.,-4.9%,-1%
Cc1cccc(NS(=O)(=O)c2ccc(C(=O)NCCCN3CCCC3=O)cc2)c1C,.,.,3.1%,-11%
O=C(CN1C(=O)CC(c2ccccc2)=Nc2ccccc21)NC1CCCCC1,-5%,-7,-4.6%,1%
CCNc1nc(NCC)nc(SCCOc2ccc(C)cc2)n1,16%,-21,-0.6%,18%
CCOC(=O)Cn1nnc(-c2ccc(OCC(C)C)cc2)n1,-5%,0,-0.2%,-6%
Cc1ccccc1CN1CCC(C(=O)Nc2ccc(Oc3cccnc3)cc2)CC1,15%,.,-0.8%,9%
C=CCn1c(SCC(=O)O)nnc1-c1ccc(C(C)(C)C)cc1,7%,7,0.5%,2%
CCOC(=O)C1CCN(S(=O)(=O)c2ccc(CN3C(=O)c4cccnc4C3=O)cc2)CC1,6%,.,1.4%,4%
C=CCn1c(NCCO)nc2sc3c(c2c1=O)CCC3,-10%,-8,7.5%,-8%
CN(C)c1cccc(C(=O)OCC(=O)NC2CCCC2)c1,-7%,.,-2.9%,-10%
COc1ccc(OC)c(S(=O)(=O)NC(C)c2ccc(-n3ccnc3)cc2)c1 (configuration not stated),.,.,0.3%,6%
O=C(O)c1ccc(CSc2ccccn2)cc1,-7%,1,1.2%,0%
Cc1ccc2[nH]cc(S(=O)(=O)c3ccc(C(C)C)cc3)c(=O)c2c1,0%,.,0.5%,-7%
COc1ccccc1S(=O)(=O)NCc1ccc(C(=O)NC(C)c2ccccn2)cc1 (configuration not stated),.,.,-0.2%,0%
Cc1onc(-c2ccccc2)c1-c1ccnc(N)n1,-8%,4,?,?
Cc1ccc(S(=O)(=O)Nc2ccccc2C(=O)Nc2sccc2C(=O)NN(C)C)cc1,-29%,1,-0.2%,-14%
Cc1ccc(C)c(NC(=O)C(=O)NCc2ccccn2)c1,-16%,5,-1.4%,15%
COCCNC(=O)c1ccc(N2CC3CC(C2)c2cccc(=O)n2C3)c(NC(=O)c2cc(OC)cc(OC)c2)c1 (configuration not stated),0%,.,1.9%,-2%
Cc1ccc(S(=O)(=O)NCC(C)n2nc(C)cc2C)cc1 (configuration not stated),2%,.,8.1%,-26%
COc1ccc(C2=Nn3c(nnc3-c3cccnc3)SC2)cc1,-7%,1,0.7%,1%
O=C(O)C(Cc1ccccc1)N1C(=O)c2cccc3cccc(c23)C1=O (configuration not stated),-1%,2,2.9%,6%
O=C(O)CCN1CC2([N+](=O)[O-])CC=C(OCCO)C([N+](=O)[O-])(C1)C2 (configuration not stated),3%,11,-2.0%,-6%
O=C(NC(=S)Nc1ccccc1N1CCN(C(=O)c2ccccc2)CC1)c1ccccc1F,14%,.,-0.7%,9%
O=c1c(Cc2ccccc2)c(O)ccn1Cc1ccc2c(c1)OCO2,0%,-14,-1.3%,-3%
Cc1[nH]c2ccc(C(=O)NC3CCCC3)cc2c1C,.,.,-5.5%,-10%
C=CCOC(=O)C1=C(C)NC(=O)NC1c1ccc(N(C)C)cc1 (configuration not stated),-12%,.,?,-6%
COc1ccc(NC(=O)C2CCC(CNS(=O)(=O)c3csc(C(N)=O)c3)CC2)cc1OC (configuration not stated),-4%,.,1.1%,1%
Cc1cccc(C)c1OCC(=O)N/N=C/c1cccn1C,23%,8,0.1%,12%
O=C(NCc1ccc2c(c1)OCO2)C1CCC(=O)N1C1CCCCC1 (configuration not stated),0%,-2,3.3%,3%
COc1ccc(S(N)(=O)=O)cc1C(=O)OCC(=O)N1c2ccccc2NC(=O)C1(C)C,.,.,-2.6%,11%

# Only part of the results is shown. The share of hits here may be higher or lower than overall.
